Screening results as filed in PubChem BioAssay.
PKD1 kinase inh – blocks activity of human protein kinase D1; Q15139; PKD1 kinase fluorescence polarization assay; inhibition, %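 (about 10 µM by stock and volumes)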; hit rate 0.056% among 200,000;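 active means inhibition of 50% or more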;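 further: controls were vehicle for no effect and a reference inhibitor for full effect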
INS promoter inh – TRM-6 insulin promoter activity inhibition; TRM-6 cells (human fetal islet line), insulin promoter-eGFP reporter, imaging; reporter expression induced with tamoxifen; inhibition, % at 2 µM; hit rate 0.9% among 130,000;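 active means inhibition above the mean plus 3 SD, with well images judged a real hit on visual review, cut at about 60% in these data, passing the limit was not always enough; inconclusive means inhibition over the cutoff but images rejected on review; inactive means inhibition not above the cutoff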
RGS16-Gao – regulators of human RGS16-Galphao interaction; O15492+P09471; bead-based flow cytometry RGS16-Galphao binding, fluorescence; actives lie on both sides; binding response (% of control), % at 10 µM; hit rate 0.38% among 220,000; AID 1441;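 active means below 25% or above 175%, edge rows of some plates excepted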;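 further: Galphao activated by GDP with aluminum fluoride before binding; 100% = wells without compound and 0% = beads without RGS; some results beyond the cut were filed as inactive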
Target sequence (O15492 whole entry, looked up): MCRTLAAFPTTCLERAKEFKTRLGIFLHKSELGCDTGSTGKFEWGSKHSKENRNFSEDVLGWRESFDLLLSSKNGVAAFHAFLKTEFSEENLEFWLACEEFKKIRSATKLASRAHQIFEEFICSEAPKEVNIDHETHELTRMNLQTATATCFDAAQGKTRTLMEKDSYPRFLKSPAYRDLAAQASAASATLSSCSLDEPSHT
Target sequence (P09471 whole entry, looked up): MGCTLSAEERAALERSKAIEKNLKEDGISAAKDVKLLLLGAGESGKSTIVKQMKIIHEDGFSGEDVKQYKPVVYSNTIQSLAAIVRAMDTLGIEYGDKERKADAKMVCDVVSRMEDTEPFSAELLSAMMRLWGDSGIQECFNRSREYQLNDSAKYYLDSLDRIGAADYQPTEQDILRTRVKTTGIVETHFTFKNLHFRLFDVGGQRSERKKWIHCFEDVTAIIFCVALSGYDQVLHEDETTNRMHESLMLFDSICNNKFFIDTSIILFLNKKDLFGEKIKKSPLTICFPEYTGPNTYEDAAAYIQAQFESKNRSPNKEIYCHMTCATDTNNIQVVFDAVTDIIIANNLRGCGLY
GALR2 ag – activates the human galanin receptor 2 | hit rate 0.48% among 140,000 | activation, %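 (tested at 5 µM)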 | GALR2-expressing cells, agonist activation read-out | AID 803;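 active means above mean plus 3 SD of all compounds, about 5% in these data, not always enough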;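 further: 0% = vehicle buffer wells and 100% = reference agonist at full effect; tested in CHO reporter cells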
Target sequence (O43603 whole entry, looked up): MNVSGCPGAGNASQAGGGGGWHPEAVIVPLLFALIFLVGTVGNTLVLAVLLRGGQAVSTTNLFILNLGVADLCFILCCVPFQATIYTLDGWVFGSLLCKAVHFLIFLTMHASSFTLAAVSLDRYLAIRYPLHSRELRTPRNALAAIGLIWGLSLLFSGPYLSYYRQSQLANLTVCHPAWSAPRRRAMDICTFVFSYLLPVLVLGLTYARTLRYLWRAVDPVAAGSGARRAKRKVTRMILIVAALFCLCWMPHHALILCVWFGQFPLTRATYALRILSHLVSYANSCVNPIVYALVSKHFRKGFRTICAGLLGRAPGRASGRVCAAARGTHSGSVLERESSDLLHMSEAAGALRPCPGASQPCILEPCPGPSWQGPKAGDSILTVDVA
HSV replic up – HSV replication enhancement. AID 1956. HSV replication augmentation in cells, fold increase. hit rate 0.005% among 220,000. maximum fold increase;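 active means peak rise of 1.5-fold or more in the series; inconclusive means self-fluorescent or not available for retest; tested in PC3 cells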;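 further: first round at 10 µM; read as green reporter fluorescence; hits show the peak of a series up to 25 µM; 1 = signal of infected wells without compound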
INS promoter inh cell count – further read-out of INS promoter inh, marked with its call; normalized cell count, %; measured here: cell count, toxicity; reference of the scale not given here;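 cells exposed to compound for 48 h; stained nuclei by imaging scaled within each plate; lower means fewer cells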
HSV replic up primary fold – recorded beside HSV replic up, whose call it bears; fold increase; compound at 10 µM; measured here: primary screen fold increase 10 uM; tested in PC3 cells;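 GFP signal in the first replicate; 1 = infected wells without compound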
An asterisk follows results filed as active; i = inactive; u = inconclusive; x = no result given.

Below each compound – PKD1 kinase inh, INS promoter inh, INS promoter inh cell count, RGS16-Gao, GALR2 ag, HSV replic up, HSV replic up primary fold
- CCC(=O)N1CCc2cc(OC)c(OC)cc2C1COc1ccc(C(=O)OC)cc1 (centres undefined)
    3, 24, 71, 105, 0.3, i, 1
- O=C(Nc1nc2ccc(F)cc2s1)C1CCCO1 (centres undefined)
    -8, 11, 107, 98, -2.3, i, 0.83
- Cc1ccc(C(=O)CSC2=NC(N)=C(C#N)C3(CCCCC3)C2C(N)=O)cc1 (centres undefined)
    -15, 5, 115, 99, -0.3, i, 0.92
- O=C1CC(C(F)(F)C(F)(F)C(F)(F)C(F)(F)F)=Nc2ccccc2N1
    -5, 27, 150, 101, -1.8, i, 0.9
- Cc1oncc1-c1csc(-c2ccccc2Cl)n1
    -6, -7, 89, 103, x, i, 1.1
- CC(CN1CCN(C)CC1)OC(=O)c1ccc(Cl)cc1 (centres undefined)
    5, 21, 139, 103, -2.5, i, 1
- C/C(=N\NC(=O)CN(c1ccccc1Br)S(C)(=O)=O)c1ccc2c(c1)OCCO2
    -2, 18, 128, 102, 0.3, i, 0.85
- CNC(=O)COC(=O)c1c2c(nc3ccccc13)CCC2
    x, x, x, 100, x, i, 1.2
- O=c1[nH]c(=S)n(C2CCCCC2)c(O)c1C=NCCN1CCOCC1
    x, x, x, 90, x, i, 0.91
- Cc1nc2c3cnn(-c4ccc(C)c(C)c4)c3ncn2n1
    -3, x, x, 98, -0.3, i, 1.1
- CC(C)C(NC(=O)C(c1ccccc1)c1ccccc1)c1nc2ccccc2[nH]1 (centres undefined)
    -7, 27, 90, 100, -2.1, i, 0.96
- N=C(N)N1CCN(Cc2ccccc2)CC1
    -8, x, x, 98, x, i, 1.1
- COCC[N+]1(C)CCCCC1
    -12, x, x, 104, x, i, 1.4
- Cc1ccccc1CN(C)C(C)C(=O)Nc1ccccc1F (centres undefined)
    -3, x, x, 102, x, i, 0.94
- O=C(NCCCN1CCOCC1)c1ccccc1NS(=O)(=O)c1cc([N+](=O)[O-])ccc1Cl
    -6, x, x, 97, 0.9, u, x
- O=C(/C=C/c1ccc(Cl)cc1)N(Cc1ccccc1)C1CCS(=O)(=O)C1 (centres undefined)
    14, -88, 49, 99, -0.3, i, 0.97
- CC1CN(Cc2cn(C)nc2-c2ccc(Oc3ccccc3)cc2)CCN1C (centres undefined)
    1, x, x, 101, x, i, 0.88
- O=C(Nc1ccccc1)c1sccc1Oc1ccc([N+](=O)[O-])cc1F
    -4, -20, 114, 96, x, i, 0.94
- Cc1cccn2c(=O)c(C=O)c(N3CCCCCC3)nc12
    -6, 39, 122, 103, -1.4, i, 0.77
- Cn1c(N)cc(-c2ccc(F)cc2)c(C#N)c1=O
    4, x, x, 117, x, i, 1
- CN(C)c1ccc(N=C/C=C2\N(C)c3ccccc3C2(C)C)cc1
    2, -6, 86, 105, -2.4, x, x
- OCC1(CCOc2ccccc2)CCN(Cc2ccc3c(c2)OCCO3)CC1
    -7, x, x, 186, x, i, 0.93
- COc1ccc(C(=O)CNC2=NCCC2)cc1
    -1, x, x, 97, x, i, 0.97
- CCOC(=O)C1C(=O)C=C(N2CCOCC2)CC1c1cccc(OC)c1 (centres undefined)
    9, 56, 145, 98, -2.3, i, 0.95
- Cc1cccc(N2C(S)=C(C#N)C(=O)NC2c2ccco2)c1 (centres undefined)
    -2, -7, 128, 103, x, i, 1
- COC(=O)[C@@]1(Cc2ccc(F)cc2)[C@H]2c3cc(C(=O)N4CCCC4)n(CCc4c[nH]c5ccc(OC)cc45)c3C[C@H]2CN1C(=O)c1ccccc1
    -20, 30, 78, 102, -0.5, x, x
- Fc1cccc(Cl)c1Cn1nnc2c(NCc3ccccn3)ncnc21
    -5, -39, 171, 101, -0.1, i, 0.93
- CC1CCC(N(CCCN)Cc2ccco2)CC1C (centres undefined)
    3, x, x, 101, x, i, 0.92
- CC(C)c1nnc(N2C(=O)C(O)=C(C(=O)c3cccs3)C2c2ccccc2)s1 (centres undefined)
    8, x, x, 97, x, u, x
- CCCC(=O)Nc1sc(C(=O)OC)c(C)c1C(N)=O
    9, x, x, 73, -0.8, i, 0.76
- C(=C\c1ccccc1)/CSc1nnc(-c2cnccn2)n1Cc1ccco1
    -4, 42, 119, 105, -1.4, i, 0.87
- Cc1nc(SCC(=O)NCc2ccco2)nc(C)c1C
    -9, -14, 74, 91, -1.4, i, 1.1
- CC1(C)CC2(C)OC(=N)C1(C#N)C2(C#N)C#N (centres undefined)
    x, x, x, 98, x, i, 1.1
- CN(C)C(=O)c1nnsc1Sc1ccc(Cl)cc1
    4, 20, 102, 105, x, i, 0.95
- COc1cc(/C=C/C(=O)OCC(=O)N2CCN(C(=O)c3ccco3)CC2)ccc1O
    1, -21, 87, 152, -0.8, i, 1.1
- COc1ccc(N=Nc2c(C)[nH][nH]c2=O)cc1
    -5, -71, 101, 110, x, i, 0.92
- CNC(=O)c1cc2c(=O)n3cccc(C)c3nc2n(C(C)C)c1=N
    -5, 61, 53, 97, 6.8, i, 0.88
- O=C(Nc1ccccc1N1CCN(C(=O)c2ccccc2)CC1)c1cccc(Cl)c1
    x, x, x, 100, x, i, 0.9
- C=CCNC(=S)N/N=C/c1ccc(C(C)(C)C)cc1
    -1, x, x, 101, x, i, 0.94
- COc1ccc(OC)c(S(=O)(=O)NCCc2csc(-c3cccnc3)n2)c1
    x, x, x, 99, x, i, 0.7
- O=C(Nc1nc2ccccc2[nH]1)c1ccc(Cl)c([N+](=O)[O-])c1
    -5, x, x, 104, x, i, 0.91
- COc1ccccc1N1CCN(C(=O)C2CCC(Cn3c(=S)[nH]c4ccccc4c3=O)CC2)CC1 (centres undefined)
    2, x, x, 102, -2.8, i, 1
- CC(C)NC(=S)N/N=C/c1cccs1
    -3, 0, 106, 102, -0.4, u, x
- O=C(NCCc1c[nH]c2ccccc12)/C(=C\c1cccnc1)NC(=O)c1ccccc1Br
    x, x, x, 100, x, i, 0.91
- COC(=O)c1ccc(CSc2nc3c(c(=O)n2-c2ccc(C)cc2)SCC3)o1
    -20, x, x, 99, -0.8, i, 0.9
- Cn1nnnc1SCc1c(F)cccc1F
    -2, x, x, 101, -0.6, i, 0.92
- COc1ccc(C(=O)Nc2nc3c(s2)Cc2cc(OC)ccc2-3)cc1
    -6, 23, 135, 99, 2.1, i, 1.2
- Cn1c(-c2ccccn2)[n+](C)c2ccccc21
    4, 43, 114, 108, x, i, 0.92
- COc1cc(Cl)c(C)cc1NC(=O)c1cc(S(=O)(=O)N(C)C)ccc1N1CCCC1
    -8, -55, 111, 100, -0.7, i, 0.81
- Cc1cc(C)cc(OCC(=O)N/N=C/c2ccncc2)c1
    -10, 10, 128, 98, -0.1, i, 1
- O=C(NCCCN1CCOCC1)c1cccc(S(=O)(=O)N2CCc3ccccc3C2)c1
    -7, x, x, 98, x, i, 1.1
- N/C(=N\OC(=O)c1cnn(-c2ccccc2)c1C(F)(F)F)c1ccc(C(F)(F)F)cc1
    x, x, x, 104, x, i, 1.1
- CCCC1C(=O)N(c2ccccc2)C1c1ccccc1 (centres undefined)
    -4, x, x, 82, -1.8, i, 1.1
- CCCCCc1nnc(NC(=O)C2COc3ccccc3O2)s1 (centres undefined)
    -6, 0, 51, 104, x, i, 0.91
- O=C(c1ccc(N2CCN(S(=O)(=O)c3ccccc3)CC2)c([N+](=O)[O-])c1)N1CCOCC1
    6, 44, 61, 46, -0.8, i, 1
- Oc1ccccc1-c1nc(NCc2cccnc2)c2ccccc2n1
    x, x, x, 101, x, i, 1.1
- Cc1sc2ncn(CC(=O)OC(C)C(=O)NC(C)(C)C)c(=O)c2c1C (centres undefined)
    -1, 9, 187, 101, -3.7, i, 0.99
- COC(=O)c1cc(-c2ccc(Cl)cc2Cl)n[nH]1
    -4, 78*, 78*, 100, x, i, 0.87
- COC(=O)c1sccc1NC(=O)C1CC(C)=C(C)CC1C(=O)O (centres undefined)
    x, x, x, 103, x, i, 0.9
- COc1ccccc1NC(=O)N1CCN(c2ncccn2)CC1
    -7, 45, 39, 100, -3.5, i, 0.99

Sorted by value in PKD1 kinase inh (high to low): 4 of the compounds above
molecule | PKD1 kinase inh
Cc1sc2ncn(CC(=O)OC(C)C(=O)NC(C)(C)C)c(=O)c2c1C (centres undefined) | -1
C(=C\c1ccccc1)/CSc1nnc(-c2cnccn2)n1Cc1ccco1 | -4
COc1ccccc1NC(=O)N1CCN(c2ncccn2)CC1 | -7
COC(=O)c1ccc(CSc2nc3c(c(=O)n2-c2ccc(C)cc2)SCC3)o1 | -20

Continuation:
Below each compound – PKD1 kinase inh, INS promoter inh, INS promoter inh cell count, RGS16-Gao, GALR2 ag, HSV replic up, HSV replic up primary fold
- Cc1nc(C)c(Cc2ccccc2Cl)c(=O)[nH]1
    2, -7, 75, 100, -1.0, i, 1
- CCOc1ccccc1N1CCN(Cc2ccc(OC)c(OC)c2OC)CC1
    2, -187, 64, 100, -1.3, i, 1
- CC(C)(C)n1nnnc1C(c1cccs1)N(Cc1ccccc1)Cc1cccnc1 (centres undefined)
    3, -20, 76, 99, -2.4, i, 1
- Cn1c(SCc2ccccc2)nnc1-c1ccc2nonc2c1
    x, x, x, 103, x, i, 0.94
- COc1ccc(OC)c2c1nc1n2CCS1
    -16, -3, 122, 105, 0.4, i, 0.99
- Cc1cc(-c2ccc(Cl)cc2)n2nc(N)nc2n1
    -9, -25, 114, 104, -0.9, i, 0.82
- COc1ccc(NC2SC(=O)N(C)C2=O)cc1 (centres undefined)
    6, 42, 125, 99, x, i, 0.91
- O=C(CCSc1ccccc1)Nc1nnc(-c2ccccc2)o1
    -2, x, x, 104, -1.9, i, 0.89
- COc1ccc(C(=O)N2CC=C(c3ccccc3)CC2)cc1S(=O)(=O)N1CCOCC1
    1, 29, 134, 105, -0.3, i, 0.89
- O=C(CSc1ncnc2nc[nH]c12)c1ccccc1
    -11, 33, 107, 74, -2.2, i, 1
- O=C(Nc1c(-c2ccccc2)nc2ccccn12)c1ccco1
    -5, 38, 113, 106, -2.0, i, 1
- CCCN1CCN(S(=O)(=O)c2ccc(OC)c(Br)c2)CC1
    0, -304, 148, 104, -1.8, i, 0.96
- COc1ccccc1NC(=S)NCCN1CCOCC1
    -10, -3, 106, 103, -0.1, i, 1
- CN1C(=O)C(O)(CC(=O)c2cccc(-n3cccc3)c2)c2ccccc21 (centres undefined)
    -5, -17, 166, 94, 0.1, i, 1.2
- CN(C)C(CNC(=S)Nc1ccccc1Cl)c1cccnc1 (centres undefined)
    -5, x, x, 102, x, i, 0.98
- CC1CN(C(=O)COC(=O)c2nn(-c3ccccc3)c(=O)c3ccccc23)CC(C)O1 (centres undefined)
    -2, -47, 57, 102, x, i, 0.99
- COc1ccccc1OCCCCCc1c(C)n[nH]c1C
    -9, 12, 94, 101, -1.7, i, 0.97
- CCOCCCNC(=O)C(c1ccc(OC)cc1)N(Cc1ccc2c(c1)OCO2)C(=O)c1ccccn1 (centres undefined)
    3, 17, 74, 100, x, i, 0.94
- Cc1ccc2c(c1)C(c1ccncc1)=NNC(c1ccc(F)cc1)=N2
    0, 42, 117, 106, x, i, 1
- O=C(CNC1C(=O)Nc2ccccc21)Sc1ccccc1 (centres undefined)
    -18, x, x, 95, -2.2, i, 0.95
- COc1ccc(N2CCN(CC(O)COc3ccc([N+](=O)[O-])cc3)CC2)cc1 (centres undefined)
    4, -42, 83, 104, -0.8, i, 0.92
- Cc1cc(C(=O)OCC(=O)Nc2nc(-c3ccccc3)cs2)c(C)o1
    -7, 3, 64, 111, -0.9, i, 0.89
- O=C(NCCOC(=O)C1COc2ccccc2O1)c1cccnc1 (centres undefined)
    -14, 23, 54, 101, -1.9, i, 1
- CNC(=S)N(Cc1ccc2c(c1)OCO2)C1CC(=O)N(c2ccccc2)C1=O (centres undefined)
    0, 14, 104, 85, -0.4, i, 0.96
- CCOC(=O)COc1cc(=O)n(CC)c2ccccc12
    -1, 4, 103, 16, -3.7, i, 1
- FC(F)(F)c1cccc(N2CCN(c3nnnn3-c3ccccc3)CC2)c1
    -5, 25, 125, 99, -0.5, i, 0.91
- COc1ccc(OC)c(CNc2nc3ccccc3n2CCN2CCCCC2)c1
    -5, x, x, 102, -1.7, i, 0.89

Complete entries as entered above. Screens in order: PKD1 kinase inh | INS promoter inh | INS promoter inh cell count | RGS16-Gao | GALR2 ag | HSV replic up | HSV replic up primary fold
COc1ccc(C(=O)CNC2=NCCC2)cc1 as listed: -1 | x | x | 97 | x | i | 0.97
Cc1cccc(N2C(S)=C(C#N)C(=O)NC2c2ccco2)c1 (centres undefined) as listed: -2 | -7 | 128 | 103 | x | i | 1
Fc1cccc(Cl)c1Cn1nnc2c(NCc3ccccn3)ncnc21 as listed: -5 | -39 | 171 | 101 | -0.1 | i | 0.93
CNC(=O)COC(=O)c1c2c(nc3ccccc13)CCC2 as listed: x | x | x | 100 | x | i | 1.2
